M. tuberculosis HTS – M. tuberculosis growth inhibition, HTS (AID 449762); M. tuberculosis H37Rv growth inhibition, 7H9 media; higher % means a stronger effect; inhibition, % at 25 µM, or IC50 in µM where a hit was titrated; actives 0.59% (n = 330,000); in the data active = a potency from the dose series; inconclusive = inhibition above about 70% without an active follow-up result;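 note: bacterial growth assessed after seven days of incubation; strong numbers were not always called active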
tuberculosis growth – growth inhibition of non-replicating M. tuberculosis (AID 488890); Mycobacterium tuberculosis non-replicating, growth inhibition; higher % means a stronger effect; one-dose inhibition, % at 25 µM; IC50 in µM for titrated hits; actives 0.39% (n = 320,000); in the data active = a potency from the dose series; inconclusive = inhibition mostly from about 82% at the one dose, without a potency; inactive = the rest, 99 in 100 with inhibition below about 76%;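 note: plate controls were DMSO cells for no effect and high antibiotic wells for full effect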
VEEV TC-83 Vero – inhibitors of VEEV TC-83 cytopathic effect, confirmation, Vero cells (AID 588727) | Vero cells, VEEV TC-83 cytopathic effect inhibition; higher % means a stronger effect | one-dose inhibition, % at 20 µM; IC50 in µM for titrated hits | actives 0.13% (n = 350,000); in the data active = a potency from the dose series; inconclusive = inhibition mostly from about 14% at the one dose, without a potency; inactive = the rest, 99 in 100 with inhibition below about 12%; note: strong numbers were not always called active
VEEV TC-83 Vero 10K pilot screen – recorded beside VEEV TC-83 Vero, whose call it bears; inhibition, %; measured here: 10K pilot screen inhibition
* marks the source's active call; other numbers are inactive results; i = inactive; ? = inconclusive; · = no result given. The list is partial; the hit share may differ from the screen's.

SMILES	M. tuberculosis HTS	tuberculosis growth	VEEV TC-83 Vero	others
CC(=O)Nc1ccc(S(=O)(=O)c2ccc(N)cc2)cc1	15.2%	40.7%	3.6%
O=C(Nc1cccc(NC(=O)c2ccccc2Cl)c1)c1ccc([N+](=O)[O-])o1	?	8.1%	4.9%
CNCC(=O)O	-1.5%	2.7%	1.9%
O=C(O)c1cccnc1SCCc1ccccc1	1.7%	2.7%	3.3%
O=c1cc(-c2ccc(O)c(O)c2)oc2cc(O)cc(O)c12	-1.8%	-8.7%	0.5%	VEEV TC-83 Vero 10K pilot screen=6.3
NC1C2CN(c3nc4c(cc3F)c(=O)c(C(=O)O)cn4-c3ccc(F)cc3F)CC12 (stereo not drawn)	?	?	1.2%
NC(Cc1ccc(O)c([N+](=O)[O-])c1)C(=O)O (stereo not drawn)	-0.8%	20.9%	2.4%
CCOC(=O)c1c(-c2ccc(-c3ccccc3)cc2)csc1NC(=O)CNCCN(C)C	?	?	i
Cc1[nH]c2ccccc2c1/C=C/c1nc2ccccc2c(=O)[nH]1	3.8%	-4.8%	12.4%
NS(=O)(=O)c1ccc(CNc2ccc3ccccc3n2)cc1	13.2%	14.4%	i
O=C(NNC(=S)NC(=O)c1ccco1)c1ccc(F)cc1	?	?	0.7%
Nc1ccc(O)cc1	-5.0%	24.6%	·
CCN(CC)CCNc1nc(-c2ccc(OC)cc2)c(-c2ccc(OC)cc2)s1	?	66.8%	36.3%
Cc1ccc(CN(CC(O)COc2cccc3[nH]cc(C)c23)C(C)(C)C)cc1 (stereo not drawn)	14.5%	11.2%	0.4%
CCOCN(C(=O)CCl)c1c(C)cccc1CC	49.2%	3.2%	2.5%
CCn1cc(C(=O)NCCc2ccccc2)c(=O)c2cc(F)c(N3CCN(C)CC3)cc21	-5.9%	·	0.0%	VEEV TC-83 Vero 10K pilot screen=5.8
O=c1oc2ccccc2nc1/C=C(\O)c1ccccc1	?	·	0.2%
CN1C(=O)N2CN(C3CCCCC3)CN3C(=O)N(C)C1C23 (stereo not drawn)	4.6%	5.2%	4.4%
CN(C)S(=O)(=O)c1cccc(NC(=O)CNCc2ccccn2)c1	-0.8%	-6.1%	i
Cc1[nH]c2ccccc2c1/C=N/Nc1nc2ccccc2[nH]1	?	5.4%	34.1%
CNC(=O)Oc1cccc2ccccc12	-1.6%	-1.2%	2.5%
O=C(CSc1ccc2nnc(-c3ccccn3)n2n1)NCc1ccco1	-5.9%	·	0.6%
COc1cnc(-c2ccccn2)nc1NC(C)C	?	66.9%	9.9%

Looked up by structure from above (2):
SMILES	M. tuberculosis HTS	tuberculosis growth	VEEV TC-83 Vero	others
Cc1[nH]c2ccccc2c1/C=C/c1nc2ccccc2c(=O)[nH]1	3.8%	-4.8%	12.4%
O=C(Nc1cccc(NC(=O)c2ccccc2Cl)c1)c1ccc([N+](=O)[O-])o1	?	8.1%	4.9%

Among those listed so far, these contain nitrogen in an aromatic ring.
SMILES	M. tuberculosis HTS	tuberculosis growth	VEEV TC-83 Vero	others
O=C(O)c1cccnc1SCCc1ccccc1	1.7%	2.7%	3.3%
NC1C2CN(c3nc4c(cc3F)c(=O)c(C(=O)O)cn4-c3ccc(F)cc3F)CC12 (stereo not drawn)	?	?	1.2%
Cc1[nH]c2ccccc2c1/C=C/c1nc2ccccc2c(=O)[nH]1	3.8%	-4.8%	12.4%
NS(=O)(=O)c1ccc(CNc2ccc3ccccc3n2)cc1	13.2%	14.4%	i
CCN(CC)CCNc1nc(-c2ccc(OC)cc2)c(-c2ccc(OC)cc2)s1	?	66.8%	36.3%
Cc1ccc(CN(CC(O)COc2cccc3[nH]cc(C)c23)C(C)(C)C)cc1 (stereo not drawn)	14.5%	11.2%	0.4%
CCn1cc(C(=O)NCCc2ccccc2)c(=O)c2cc(F)c(N3CCN(C)CC3)cc21	-5.9%	·	0.0%	VEEV TC-83 Vero 10K pilot screen=5.8
O=c1oc2ccccc2nc1/C=C(\O)c1ccccc1	?	·	0.2%
CN(C)S(=O)(=O)c1cccc(NC(=O)CNCc2ccccn2)c1	-0.8%	-6.1%	i
Cc1[nH]c2ccccc2c1/C=N/Nc1nc2ccccc2[nH]1	?	5.4%	34.1%
O=C(CSc1ccc2nnc(-c3ccccn3)n2n1)NCc1ccco1	-5.9%	·	0.6%
COc1cnc(-c2ccccn2)nc1NC(C)C	?	66.9%	9.9%
